SARS PLP yeast = inhibitors of SARS-CoV papain-like protease in yeast | S. cerevisiae expressing SARS-CoV PLpro, growth rescue; control for the full effect not named in the record | Potency, µM (highest dose often 32.9 µM), for inactives: at the highest dose activity, positive = growth rescue | hit rate 0.19% among 330,000; active means well fitted rising curve with a large enough effect; inconclusive means small, poorly fitted or top-dose-only effect; inactive means no such curve, though single readings can be large or run the other way; note: 0% is about no effect; nearly all actives have a fitted effect of over 55% in size; growth read by luminescence after 48 h
MARV entry inh = Marburg virus entry inhibition | hit rate 1.8% among 300,000 | Potency, µM (doses to about 37.8 µM), inactives show top-dose activity change, negative = inhibition, actives largely listed as inhibitors | AID 540276 | Marburg virus pseudotyped entry inhibition, cell reporter; control for the full effect not named in the record; about a third of the inactives were read at about 46 µM; active = well fitted inhibition curve with a large enough effect; inconclusive = small, poorly fitted or top-dose-only effect, or effect the other way; inactive = flat fitted curve, though single readings scatter; tested in HEK293 cells; about a fifth of its hits are not listed in these tables; note: % is set by controls: 0 for no effect and ±100 for the full control effect; luciferase read-out
Cruzain Triton = inhibitors of Trypanosoma cruzi cruzain with detergent | hit rate 0.43% among 200,000 | Potency, µM, for inactives: max response, negative = inhibition, usual class: inhibitors | purified cruzain, Z-FR-AMC fluorescence, 0.01% Triton | P25779 | AID 1478;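 note: plate controls were neutral wells for no effect and buffer without enzyme for full effect; nearly all actives have a fitted effect of over 40% in size; top concentration of the series not given in the record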
Target sequence (P25779 123-467 limits assumed): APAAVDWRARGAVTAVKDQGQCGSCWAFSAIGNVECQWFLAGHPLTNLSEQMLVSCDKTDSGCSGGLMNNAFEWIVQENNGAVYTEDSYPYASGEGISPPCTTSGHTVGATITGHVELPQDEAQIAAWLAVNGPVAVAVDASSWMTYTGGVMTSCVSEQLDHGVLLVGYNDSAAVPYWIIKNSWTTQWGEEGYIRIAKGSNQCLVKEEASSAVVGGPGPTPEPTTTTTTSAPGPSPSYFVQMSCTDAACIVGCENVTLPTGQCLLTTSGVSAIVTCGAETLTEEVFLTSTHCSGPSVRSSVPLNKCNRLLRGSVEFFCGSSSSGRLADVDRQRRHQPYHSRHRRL
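Purified cruzain (1.5 nM final) was preincubated with compounds for 15 min at room temperature in 100 mM sodium acetate pH 5.5, 5 mM DTT, 0.01% Triton X-100. Reaction started with 2 uM Z-FR-AMC; AMC fluorescence change over 60 s gave activity.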
Cruzain inh noDet = blocks cruzain activity in detergent-free assay; P25779; Potency, µM, for inactives: max response, negative = inhibition, actives largely listed as inhibitors; hit rate 2.3% among 200,000; purified cruzain, Z-FR-AMC fluorescence, no detergent;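 note: plate controls were enzyme without inhibitor for no effect and buffer without enzyme for full effect; nearly all actives have a fitted effect of over 40% in size; top concentration of the series not given in the record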
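Purified cruzain at 1.5 nM, pre-incubated 15 min with compound at room temperature in 100 mM sodium acetate pH 5.5, 5 mM DTT, 0.00005% Triton X-100. Reaction started with 2 uM Z-FR-AMC; AMC fluorescence increase over 60 s gives rate.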
StopGo reporter = FMDV 2A StopGo reporter, luciferase signal. human cells with a luciferase reporter of 2A StopGo recoding; control for the full effect not named in the record. Potency, µM (series often up to 57.9 µM), for inactives: at the top dose signal change, negative = less light. hit rate 1.2% among 410,000. AID 1159524; active = well fitted falling curve with a large enough effect; inconclusive = small, poorly fitted or top-dose-only effect; inactive = no such curve, though single readings can be large or run the other way; tested in HEK293T cells; note: % is set by controls: 0 for no effect and ±100 for the full control effect; nearly all actives have a fitted effect of over 45% in size; luciferase light after 4 h
RE007 growth inh = less growth of the S. pombe RE007 Vpr strain | AID 651644 | Potency, µM (top dose mostly 92.2 µM), for the others: at the top dose activity change, negative = less growth | hit rate 0.21% among 360,000 | S. pombe RE007 Vpr strain, BacTiter-Glo ATP luminescence, 24 h; control for the full effect not named in the record; active = well fitted falling curve with a large enough effect; inconclusive = small, poorly fitted or top-dose-only effect; inactive = no such curve, though single readings can be large or run the other way;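 note: % is set by controls: 0 for no effect and ±100 for the full control effect; nearly all actives have a fitted effect of over 50% in size; the assay follows cell death caused by Vpr and the record does not say whether a fall means rescue or toxicity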
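Fission yeast strain RE007, carrying one chromosomally integrated HIV-1 vpr copy, was seeded at OD 0.01 in PMG+AL medium with 23 nL pinned compound. After 24 h at 30 °C and 99% humidity, viability was read by BacTiter-Glo luminescence.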
Lassa entry inh = Lassa virus entry inhibition; Lassa virus pseudotype entry inhibition, cell reporter; control for the full effect not named in the record; hit rate 1.2% among 300,000; Potency, µM (series often up to 37.9 µM), inactives show top-dose activity change, negative = inhibition, most hits filed as inhibitors; AID 540256; active means well fitted inhibition curve with a large enough effect; inconclusive means small, poorly fitted or top-dose-only effect, or effect the other way; inactive means flat fitted curve, though single readings scatter; tested in HEK293 cells; note: % is set by controls: 0 for no effect and ±100 for the full control effect; nearly all actives have a fitted effect of over 50% in size; luciferase read-out
NS1 function inh = influenza NS1 inhibition. AID 2326. hit rate 0.4% among 270,000. S. cerevisiae slowed by influenza A NS1, growth recovery by OD600. Potency, µM (series often up to 46.1 µM), for the others: at the highest dose activity, positive = more growth; active means well fitted rising curve with a large enough effect; inconclusive means small, poorly fitted or top-dose-only effect; inactive means no such curve, though single readings can be large or run the other way; note: nearly all actives have a fitted effect of over 50% in size
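S. cerevisiae expressing influenza A NS1, grown in glucose, washed, then diluted 1:100 into pH 6.0 -URA galactose medium with 23 nl compound. Growth recovery read as OD600; NS1-free strain serves as control.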
* = called active by the depositor; ? = inconclusive; / = not tested or not shown; & = joins results of further samples; [ ] = another dose, or the depositor's remark. Unless noted, calls come from the whole dose curve; as a rule, active = well fitted curve in the direction sought with a large enough effect; inconclusive = small, poorly fitted or top-dose-only effect, or another doubt; inactive = no such curve, though single readings can be large; an effect the other way counts as inactive or inconclusive. Potency is the fitted concentration of half-maximal effect.

Sequence of screens – SARS PLP yeast | MARV entry inh | Cruzain Triton | Cruzain inh noDet | StopGo reporter | RE007 growth inh | Lassa entry inh | NS1 function inh
CCOc1ccc(CN(CCc2ccc3c(c2)OCO3)Cc2cc(OC)ccc2O)cc1
  / | -2%[46.1 µM] | -4.6% | -18% | -21% | / | -29%[46.1 µM] | /
COC(=O)CCC(=O)Nc1ccc(Cl)c(Cl)c1
  -4% | 23% | 0.7% | -11% | / | -14% | 8% | -8%
Cc1cccc(N2CCN(C(=O)CS(=O)(=O)Cc3nc(-c4ccccc4C)oc3C)CC2C)c1 (stereo unspecified)
  / | ? | -1.9% | ? | ? | / | -26%[46.1 µM] | /
COc1ccc(N=C(C)C2=C(O)COC2=O)cc1
  7% | 0% | -4.9% | 1% | -10% | -3% | 7% | 1%
CCCc1cc(=O)oc2cc(OCC(=O)NC3CC(C)(C)NC(C)(C)C3)ccc12
  1% | -23%[46.1 µM] | / | / | -23% | 17% | 3%[46.1 µM] | -1%
CCn1ncc(/C=C/C(=O)Nc2c(C)nn(Cc3ccc(Cl)cc3Cl)c2C)c1C
  -1% | ? | -1.9% | ? | -28% | -1% | ? | -16%
COc1ccc(C2SCCN2C(=S)Nc2cccc(C(F)(F)F)c2)cc1 (stereo unspecified)
  -19% | 14% | -11% | 1% | -7% | -20% | ? | -8%
Cc1ccc(CNC(=O)c2ccc3c(c2)N(Cc2ccccc2)C(=O)c2ccccc2S3(=O)=O)cc1
  / | ? | 1.2% | ? | 37%[activator] | / | -6%[46.1 µM] | /
O=C(NCCc1ccccc1)C(NS(=O)(=O)c1cccc2nsnc12)c1ccccc1 (stereo unspecified)
  ? | -9% | -4.7% | -2% | 14% | 1% | -1% | -8%
CN1CCN(Cc2cccc3ncccc23)CC1CCO (stereo unspecified)
  -2% | 21%[46.1 µM] | / | / | -8% | -19% | ? | 2%
Cc1nnc(-c2cccc(Br)c2)c2cn(-c3ccccc3)nc12
  3% | -24% | 1.0% | 3% | 7% | -11% | ? | ?
CCOC(=O)NC1(NC2CCCCC2)Oc2ccccc2O1
  ? | -8% | -0.6% | 15% | 2% | 14% | -15% | -71%
Cc1nc(SCC(=O)c2ccc(Cl)s2)c2oc3ccccc3c2n1
  3% | 3% | 3.6% | 0% | -4% | -20% | 14% | ?
COc1ccc(-c2csc(C3=C(O)CN(Cc4ccc(Cl)cc4)C3=N)n2)cc1OC
  0% | -1% | -6.2% | -10% | -7% | -6% | -19% | -1%
Cc1ccc(C)c(Nc2nn3c(=O)c4ccc(C(=O)NCc5cccs5)cc4nc3s2)c1
  / | / | -0.5% | -7% | -15% | / | ? | /
CC1CCN(C2=NC(=O)/C(=C/c3ccc(O)cc3)S2)CC1
  -6% | ? | / | / | 55%[activator] | 4% | -27% | 15%
Cc1ccc(S(=O)(=O)N2CCC3(CC2)CC(=O)c2ccccc2O3)cc1
  -9% | 2%[46.1 µM] | / | / | -23% | -23% | ? | /
O=C1/C(=C/c2cccc(Cl)c2)CSc2sccc21
  -4% | 1% | / | / | 2% | -21% | 0% | -3%
CC1(C(=O)O)CCC(C(=O)Nc2ccccc2O)C1(C)C (stereo unspecified)
  0% | 15% | 4.3% | -2% | 6% | 16% | -18% | -4%
CCOc1ccc(NC(=O)CN(C)C(=O)c2cc(C3CC3)nn2-c2ccccc2)cc1OCC
  2% | -15% | / | / | -22% | -13% | ? | /
CCC(=NCCCN1CCOCC1)c1c(O)n(Cc2ccccc2)c(=O)[nH]c1=O
  0% | ? | 7.0% | -2% | -21% | -5% | ? | -9%
Cc1ccc(C(=O)Nc2ccc3c(c2)OCO3)cc1S(=O)(=O)N1CCCCC1
  -5% | ? | -1.9% | -18% | ? | 3% | ? | -19%
CC/C(=C1/C(=O)CC(C)(C)C(C(=O)OC)C1=O)N1CCCC1 (stereo unspecified)
  1% | 3% | 7.5% | 7% | -7% | -6% | 15% | 8%
Cc1ccc(C(=O)Nc2ccc(Nc3ccccc3)cc2)cc1Br
  / | -6%[46.1 µM] | / | / | -4% | 1% | -6% | /
COc1ccc(NC(=S)NNS(=O)(=O)c2ccc3ccccc3c2)c(OC)c1
  0% | -15%[46.1 µM] | / | / | -22% | 1% | 9% | 0%
CC(=O)Nc1ccc(S(=O)(=O)/N=C2/NC(=O)/C(=C\c3ccco3)S2)cc1
  12% | ? | / | / | 13% | 23% | -3% | /
Cc1cc([N+](=O)[O-])nn1CC(=O)NNC(=S)Nc1ccc(F)cc1
  5% | 23% | 2.9% | 1% | -2% | -2% | 1% | 16%
Cc1ccc(O)c(C2=NNC(O)(C(F)(F)F)C2)c1 (stereo unspecified)
  -13% | -12% | -7.1% | -3% | -15% | 0% | ? | -12%
CCOC(=O)/C(=C\C=C\c1ccccc1)NC(=O)c1ccccc1
  9% | ? | -25% | -19% | 4% | 22% | ? | -16%
CCCC(=O)Nc1ccc2nc(C)n(Cc3ccccc3Cl)c(=O)c2c1
  -12% | / | / | / | ? | 12% | / | -14%
COCCN(CC1CCCN(C2Cc3ccccc3C2)C1)C(=O)CCSC (stereo unspecified)
  1% | / | / | / | 1% | -11% | / | -5%
CSc1ccc(CNC(=O)CCc2c(C)nn(-c3ccc(N4CCCC4)nn3)c2C)cc1
  / | / | -3.8% | 3% | 14% | / | -10%[46.1 µM] | /
Cc1ccc(CNC(=O)CSCc2cccc(F)c2)cc1
  -2% | 14%[46.1 µM] | / | / | 64%[activator] | -4% | 9% | /
CC(C)CCNC(=O)C1CCN(C(=O)N2CCOc3ccc(Cl)cc32)CC1
  / | / | -2.7% | 1% | -13% | / | ? | /
COc1ccc(C2CC(=O)C(C=NCCCN3CCOCC3)=C(O)C2)cc1 (stereo unspecified)
  0% | ? | -5.9% | -16% | 6% | 9% | 0% | 4%
COc1ccc(N2CC(NC(=O)c3ccc(S(=O)(=O)N4CCOCC4)cc3)CC2=O)cc1 (stereo unspecified)
  / | / | 0.0% | -2% | -14% | / | -4%[46.1 µM] | /
O=C(CN1CCOCCOCCOCC1)Nc1ccccc1
  -13% | 5% | -0.6% | -5% | / | 0% | 11% | 5%
COc1ccc(/C=C/c2nc(C#N)c(N3CCC(C(N)=O)CC3)o2)cc1OC
  / | 16%[46.1 µM] | ? | 32µM* | -1% | / | -7%[46.1 µM] | /
CC1CN(S(=O)(=O)c2cccc(-c3cn4ccccc4n3)c2)CC(C)O1 (stereo unspecified)
  15% | ? | -0.3% | -9% | / | 10% | ? | -81%
N#C/C(=C\c1ccc(F)cc1)c1nc(-c2ccc(-c3ccccc3)cc2)cs1
  / | / | -0.4% | -1% | -7% | / | 18%[46.1 µM] | /
CC(Oc1ccc(Cl)cc1)C(=O)Nc1sccc1C(N)=O (stereo unspecified)
  -19% | ? | / | / | ? | -9% | 14% | /
CCCn1nnc(NC(=O)c2ccc(F)cc2)n1
  8% | 9%[46.1 µM] | 3.6% | 0% | 23% | 8% | ? | 1%
Cc1cccc(N(C)C(=O)c2cc(S(=O)(=O)N3CCCC3)cn2C)c1
  -1% | / | -4.4% | 4% | -19%&3% | 2% | -10%[46.1 µM] | 4%
O=C(Nc1cccn(Cc2ccc(F)cc2)c1=O)NC1CCCCC1
  -1% | -27% | -6.6% | -11% | -18% | 0% | ? | -11%
Cc1ccc(C)c(-c2nnc(NC(=O)CCS(=O)(=O)c3ccccc3)o2)c1
  -1% | -3% | / | / | 1% | 3% | 0%[46.1 µM] | /
CSc1nsc(SCC(=O)Nc2ccc(Br)cn2)n1
  -7% | ? | -6.7% | 1% | 6% | ? | 18% | -8%
CC(C)/C=N\NC(=O)CCCCC(=O)N/N=C/C(C)C
  -8% | ? | 1.8% | 5% | -20% | 1% | -21% | ?
COc1cccc(/C=N/c2nc3ccccc3[nH]2)c1O
  5% | / | / | / | 27% | -24% | / | 1%
CC(=O)NC(CC(=O)OCC(=O)NCCc1ccccc1)c1ccccc1 (stereo unspecified)
  -1% | 14% | / | / | -24% | -23% | -5% | /
Cn1ccc2cc(S(=O)(=O)N3CCCC(C(=O)NCc4ccccc4F)C3)ccc21 (stereo unspecified)
  / | / | -2.8% | ? | 5% | / | -1%[46.1 µM] | /
CCCCCC(O)(c1ccccc1)C(CN1CCOCC1)c1ccccc1 (stereo unspecified)
  -5% | / | / | / | ? | -7% | / | -1%
Cc1ccccc1CNC(=O)CCCn1c(=O)c2cccn2c2ccccc21
  / | / | -4.1% | 2% | -16% | / | 6%[46.1 µM] | /
COc1ccc(C2C(C(C)=O)=C(O)C(=O)N2c2cccnc2)cc1OC (stereo unspecified)
  5% | 0% | -2.8% | -3% | 3% | 17% | 4% | 3%
COc1ccc(/C=C2/SC(=S)N(CCCC(=O)N3CCN(C)CC3)C2=O)cc1
  ? | ? | / | / | 13% | -4% | -11% | 2%
CCc1nonc1NC(=O)c1oc2cc(Br)ccc2c1C
  3% | 3%[46.1 µM] | / | / | 10% | -1% | 7%[46.1 µM] | -9%
CC1C=CC=CC=CC=CC=CC=CC=CC(OC2OC(C)C(O)C(N)C2O)CC2OC(O)(CC(O)CC(O)C(O)CCC(O)CC(O)CC(=O)OC(C)C(C)C1O)CC(O)C2C(=O)O (stereo unspecified)
  / | ? | / | / | -8% | -18% | ? | /
CC1(C)N=C(N)N=C(N)N1c1ccc(F)cc1F
  4% | 1%[46.1 µM] | 1.1% | -7% | -12% | -18% | 5% | 5%
COc1ccc(N2CCN(C(=O)CCc3c[nH]c4ccccc34)CC2)cc1
  -2% | -5%[46.1 µM] | / | / | 11% | 26% | ? | /
CCN(CC)CCN(C(=O)c1ccc(N2C(=O)CCC2=O)cc1)c1nc2cc3c(cc2s1)OCCO3
  2% | -2% | / | / | 20% | -5% | / | /
